TRPML1 blocker: blocks the human TRPML1 channel | Q9GZU1 | TRPML1-inducible cells, Ca2+ dye fluorescence, FDSS; active compounds read low; inhibition of EC80 agonist-evoked calcium signal | activity change, negative = inhibition, % (no concentration beside the values) | 0.02% of 390,000 active | AID 624415; in the data active means activity change below about -50%; inconclusive means about -30% to -50%; inactive means above about -30%;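 note: stimulus is agonist 54-4 at its EC80 concentration; % is set by controls: 0 for no effect and ±100 for the full control effect; compound concentration not given in the record; the text of the record puts the active cut at -80%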
Target sequence (Q9GZU1 whole entry, looked up): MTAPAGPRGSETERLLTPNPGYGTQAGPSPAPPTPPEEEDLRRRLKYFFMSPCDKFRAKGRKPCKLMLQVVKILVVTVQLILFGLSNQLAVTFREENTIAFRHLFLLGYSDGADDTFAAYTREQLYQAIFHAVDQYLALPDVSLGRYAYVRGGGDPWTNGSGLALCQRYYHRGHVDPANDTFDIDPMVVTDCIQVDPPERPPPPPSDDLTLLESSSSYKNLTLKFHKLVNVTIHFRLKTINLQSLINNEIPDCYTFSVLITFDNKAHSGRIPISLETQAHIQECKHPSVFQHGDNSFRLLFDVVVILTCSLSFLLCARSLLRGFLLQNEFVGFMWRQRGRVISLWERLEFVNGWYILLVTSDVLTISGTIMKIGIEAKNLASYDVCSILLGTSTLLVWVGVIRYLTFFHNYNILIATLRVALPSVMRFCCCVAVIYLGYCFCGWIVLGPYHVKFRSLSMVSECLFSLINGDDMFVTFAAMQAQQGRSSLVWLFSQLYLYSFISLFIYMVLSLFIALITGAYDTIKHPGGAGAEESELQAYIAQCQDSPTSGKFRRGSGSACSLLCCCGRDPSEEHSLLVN
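Calcium fluorescence in TRPML1-DL cells induced overnight with Tet: a 110 s read after compound pin addition, then a 110 s antagonist read after challenge with 54-4 at 4 uM final (EC80).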
Sfp inh: Sfp phosphopantetheinyl transferase inhibition; Potency, µM, for the others: max response, negative = inhibition, actives largely listed as inhibitors; Q9F4F7; Biochemical Sfp PPTase activity, qHTS; 3.5% of 310,000 active; active = well fitted inhibition curve with a large enough effect; inconclusive = small, poorly fitted or top-dose-only effect, or another doubt; inactive = no such curve, though single readings can be large or run the other way;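 note: the enzyme is Sfp with the accession as filed and its product quenches rhodamine fluorescence; potency is the fitted concentration of half-maximal effect; 0% = enzyme reaction without inhibitor and -100% = no enzyme wells; top concentration of the series not given in the record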
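Reaction rates are the 30-min fluorescence difference (ex 525, em 598 nm) in wells containing 15 nM Sfp, 5 uM rhodamine-CoA and 12.5 uM BHQ-2-YbbR at pH 7.6 with 10 mM MgCl2.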
ClpP mod: qHTS Assay for Activators of ClpP | ATP-dependent Clp protease proteolytic subunit (Bacillus subtilis (strain 168)), P80244 | purified B. subtilis ClpP, FRET peptide cleavage, 20 min | Potency, µM (series often up to 57.5 µM), inactives show top-dose activity change, negative = active | 1.9% of 340,000 active; active = well fitted falling curve with a large enough effect; inconclusive = small, poorly fitted or top-dose-only effect; inactive = no such curve, though single readings can be large or run the other way; note: potency is the fitted concentration of half-maximal effect; the source files actives as falling curves though it sought activators and does not explain the sign; nearly all actives have a fitted effect of over 65% in size; many hits overshoot -100%
Target sequence (P80244 whole entry, looked up): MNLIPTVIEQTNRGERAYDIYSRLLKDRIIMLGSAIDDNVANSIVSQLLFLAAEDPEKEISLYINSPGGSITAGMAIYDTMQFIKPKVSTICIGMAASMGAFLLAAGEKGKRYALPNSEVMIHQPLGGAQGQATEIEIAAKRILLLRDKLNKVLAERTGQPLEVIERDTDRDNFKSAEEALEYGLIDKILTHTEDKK
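FRET quenching reversal measured ClpP activation: 10 microg/mL B. subtilis ClpP at pH 8 with the FRET-FV decapeptide, read at 430 nm after 320 nm excitation. The 20-min minus 0-min signal was scaled between DMSO/no-enzyme wells and ADEP (5.8 microM final).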
PINK1 modulator: changes PINK1 expression; Potency, µM (highest dose often 76.6 µM), without a hit: at the highest dose activation (PINK1 increase), hits mostly activators; 0.2% of 410,000 active; PINK1 immunofluorescence, high-content cytometry, 24 h; active = well fitted activation curve with a large enough effect; inconclusive = small, poorly fitted or top-dose-only effect; inactive = flat fitted curve, though single readings scatter; cell line not stated here;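 note: potency is the fitted concentration of half-maximal effect; % of control where 0% means no effect; nearly all actives have a fitted effect of over 65% in size; a mitochondrial uncoupler was the plate control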
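Decision-based qHTS: stable cells, 24 h exposure to five compound concentrations, CCCP as control. Fixed cells stained for PINK1 plus nuclear, mitochondrial and cell markers, cytometer read.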
TRPV1 potentiator: human TRPV1 potentiation; TRPV1-expressing cells, Fluo-8 calcium influx, capsaicin EC20 potentiation; host cell line not named in the record; control for the full effect not named in the record; AID 540277; 0.02% of 320,000 active; potentiation, % at 8.33 µM; active means potentiation above 80%; inconclusive means 30% to 80%; inactive means below 30%; note: 0% is about no effect
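TRPV1-expressing cells were cultured overnight at 35.5C and loaded with Fluo-8 calcium dye for 40 to 90 min at room temperature. After a 10 s baseline, compound was added and calcium influx was read kinetically for 3 min (ex 480/em 520 nm).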
TRPML1 agonist: agonists of human TRPML1 channel; Q9GZU1; TRPML1-expressing cells, Ca2+ dye fluorescence, FDSS; host cell line not named in the record; reference of the full effect not given here; activation, % (test concentration not listed); 0.12% of 410,000 active; AID 624414; in the data active = activation above about 50%; inconclusive = about 30% to 50%; inactive = below about 30%; note: 0% is about no effect; the text of the record puts the active cut at 80%
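Agonist activity was taken from a 110 s kinetic Ca2+ dye read on the FDSS after pinning compounds onto TRPML1-DL cells. The cells were seeded at 1,500/well with Tet inducer, incubated about 16 h, then dye-loaded at room temperature.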
Menin-MLL FL inh: menin-MLL binding inhibition, fluorescein peptide | Fluorescence polarization, fluorescein-MLL peptide displacement from menin | FP activity change, % at 61.4 µM | 290,000 tested, under 10 active; inconclusive = falling polarisation curve, or a change in total fluorescence; inactive = total fluorescence flat and polarisation flat or rising; no compound was filed as active; the % refers to the polarisation; negative = inhibition;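 note: % of control where 0% means no effect; inhibitors lower the polarisation; unlabelled MLL peptide was the positive control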
Numbers without * were called inactive; ? = inconclusive; . = no result given; & = joins results of further samples. Hits appear at their usual frequency. Share with any hit: about 4.4%.

SMILES | TRPML1 blocker | Sfp inh | ClpP mod | PINK1 modulator | TRPV1 potentiator | TRPML1 agonist | Menin-MLL FL inh
Cc1ccc(C2/C(=C(\O)c3ccc4c(c3)OCCO4)C(=O)C(=O)N2CCCN(C)C)o1 (configuration not stated) | . | -9.7% | . | . | -9.6 | . | ?
N#Cc1cccc(CN2CCC(=O)N([C@H](CO)Cc3ccccc3)CC2)c1 | 12.5 | 1.5% | -0.9%&-0.7% | -0.1% | -17.9 | 0.1&0.3 | -1.0
C[C@H]1CN=C(N(C)C)N1CCC1CCCCC1 | -2.3 | . | 0.2% | -0.6% | -5.4 | -0.6 | .
CCN(c1ccccc1)S(=O)(=O)c1nnc(NC(=O)COc2ccccc2F)s1 | 10.1 | . | -1.3% | 0.5% | . | 1.4 | .
COc1ccc(NC(=O)Cn2nc(-c3ccncc3)ccc2=O)cc1Cl | 20.0 | . | 0.5% | -0.2% | . | -0.8 | .
Cc1ccc(NC(=O)CC2SC(=NC3CCCCC3)NC2=O)cc1 (configuration not stated) | 22.7 | -2.1% | 1.3% | 1.4% | 0.6 | 0.4 | 6.1
CN(C)/C=C1\N=C(c2ccc3c(c2)OCO3)OC1=O | -2.3 | 3.9% | 1.0% | 2.6% | -5.5 | -1.0 | 2.6
O=c1[nH][nH]c(C(F)(F)F)c1C=Nc1ccc(Cl)cc1 | 2.9 | -1.7% | 2.8% | -1.6% | 0.7 | -0.8 | -1.7
CC1CCc2c(sc3ncnc(SCC(=O)Nc4ccc(C(=O)O)cc4)c23)C1 (configuration not stated) | -2.8 | -6.5% | . | 0.0% | -2.3 | -0.3 | .
COc1ccccc1N1CCN(C(=O)CCC(=O)Nc2nnc(C(C)C)s2)CC1 | 30.8 | 23.4% | -0.6% | -0.5% | 16.3 | -0.2 | .
C[C@H]1C=C(C(=O)N2CCN(Cc3ccc4c(c3)OCO4)CC2)O[C@@H](OCc2ccc(CO)cc2)C1 | 2.6 | 24.7% | -4.3% | -0.4% | 27.5 | 1.4 | 0.1
Cc1cc(-c2ccccc2)nc(N/N=C/c2ccccc2)n1 | -2.9 | 19.5% | . | 5.9% | -5.6 | 0.4 | 1.6
O=C1CC(=O)N(C2CCCCC2)C(=O)N1c1ccccc1S(=O)(=O)Oc1ccccc1 | . | . | -0.1% | -0.3% | . | 0.0 | .
O=NN(Cc1cccnc1)Cc1cccnc1 | . | . | -3.6% | 1.7% | . | -0.3 | .
O=C1NC(=O)C(=CC=Cc2ccccc2)S1 | 16.1 | . | -5.5% | -0.1% | . | 0.2 | .
O=C(NC1CC1)C1CCCN(C(=O)NC2CCCCC2)C1 (configuration not stated) | 3.7 | 13.1% | 0.2% | 6.2% | -0.2 | 0.2 | 3.9
CCCn1c(SCC(=O)N2CC(=O)Nc3ccccc32)nc2ccccc21 | -1.3 | ? | . | 0.0% | -0.4 | 3.0 | -1.0
[N-]=[N+]=NC[C@H](Cc1ccccc1)N1CCN(Cc2ccccc2)CCC1=O | -1.4 | 7.8% | -0.7% | 0.5% | -0.6 | -0.4 | 8.1
CCn1cc(C(=O)N(C)c2ccc(OC)cc2OC)c2cc(OC)c(OC)cc2c1=O | 1.6 | 9.6% | -0.2% | 3.2% | 0.6 | 1.5 | -13.2
COc1ccccc1CNc1nc(-c2ccoc2)nc2ccccc12 | . | -4.4% | . | 0.6% | . | . | 29.9

Entries of single compounds from above:
CN(C)/C=C1\N=C(c2ccc3c(c2)OCO3)OC1=O as listed: TRPML1 blocker = -2.3; Sfp inh = 3.9%; ClpP mod = 1.0%; PINK1 modulator = 2.6%; TRPV1 potentiator = -5.5; TRPML1 agonist = -1.0; Menin-MLL FL inh = 2.6
O=c1[nH][nH]c(C(F)(F)F)c1C=Nc1ccc(Cl)cc1 as listed: TRPML1 blocker = 2.9; Sfp inh = -1.7%; ClpP mod = 2.8%; PINK1 modulator = -1.6%; TRPV1 potentiator = 0.7; TRPML1 agonist = -0.8; Menin-MLL FL inh = -1.7

An excerpt from above in order of number of heavy atoms, rising.
SMILES | TRPML1 blocker | Sfp inh | ClpP mod | PINK1 modulator | TRPV1 potentiator | TRPML1 agonist | Menin-MLL FL inh
O=C1NC(=O)C(=CC=Cc2ccccc2)S1 | 16.1 | . | -5.5% | -0.1% | . | 0.2 | .
Cc1cc(-c2ccccc2)nc(N/N=C/c2ccccc2)n1 | -2.9 | 19.5% | . | 5.9% | -5.6 | 0.4 | 1.6
CCn1cc(C(=O)N(C)c2ccc(OC)cc2OC)c2cc(OC)c(OC)cc2c1=O | 1.6 | 9.6% | -0.2% | 3.2% | 0.6 | 1.5 | -13.2

(next part)
SMILES | TRPML1 blocker | Sfp inh | ClpP mod | PINK1 modulator | TRPV1 potentiator | TRPML1 agonist | Menin-MLL FL inh
Cc1ccc(C(=O)N/N=C\c2cccn2C)cn1 | 20.8 | -48.4% | 0.4% | -1.4% | ? | 3.0 | 4.6
CC(NC(=O)Nc1ncccn1)(C(F)(F)F)C(F)(F)F | -15.2 | 12.8% | 2.0% | -0.3% | -6.7 | 0.3 | 4.2
CCC(C(=O)NCCc1ccc(SC)cc1)n1nc(C)c2c(C)n(-c3ccc(C)cc3)nc2c1=O (configuration not stated) | 28.9 | . | -0.1% | -0.3% | . | 2.8 | .
CN1CCN(C(=O)/C(=C\c2cccnc2)NC(=O)c2cccc(Br)c2)CC1 | 7.8 | 11.8% | 0.6% | 0.9% | -9.5 | 0.0 | .
Cc1ccnc(NC(=O)CCC(=O)N(CC(=O)NCc2ccccc2)Cc2cccs2)c1 | -11.9 | 14.4% | . | 0.9% | 7.5 | -0.8 | 0.2
C=C(C)CN(CC)C(=O)CN1C(=O)NC2(CCCc3ccccc32)C1=O (configuration not stated) | -11.0 | 19.3% | -1.1% | -0.2% | -0.9 | 1.3 | .
Cc1cc(C)c2c(=O)[nH]c(SCc3ccccc3)nc2n1 | 1.7 | -10.7% | . | -0.6% | -0.2 | 2.0 | -4.4
O=S(=O)(NCc1ccncc1)c1ccc(F)c(F)c1 | 15.5 | . | -0.7% | 3.7% | . | -0.7 | .
COc1ccccc1C(=O)OCc1cc(=O)n2ccsc2n1 | -7.2 | . | -0.2% | 0.3% | . | -0.1 | .
Cc1cc(C)c(S(=O)(=O)N2CCCCC2CCNC(=O)C(=O)NCC2CCCO2)c(C)c1 (configuration not stated) | 31.9 | . | 2.2% | 1.7% | -6.8 | -0.5 | .
CC(=NNC(=S)N1CC2CCC(CC2)C1)c1cccc(C)n1 | -12.9 | . | -29.3% | 0.1% | . | 1.4 | .
CN(C(=O)c1cccc(NC(=O)Cc2ccccc2)c1)c1ccccc1 | -6.8 | 4.5% | 2.1% | 1.1% | -26.4 | 0.7 | -0.6
O=C1C2C3C=CC(C2C(=O)N1c1ccc(O)cc1)C1C2C(=O)N(c4ccc(O)cc4)C(=O)C2C31 (configuration not stated) | -12.2 | 13.1% | -0.2% | 2.1% | 5.9 | 0.2 | 3.8
COc1ccccc1CNS(=O)(=O)c1ccc(-c2cc(C(F)(F)F)on2)s1 | 2.8 | . | 0.0% | -0.8% | . | 2.4 | .
COc1c(C)cc(Br)cc1C(=O)Nc1cccc(NC(=O)c2ccco2)c1 | -12.1 | 7.1% | 28.2µM* | -0.9% | -6.5 | 1.1 | 0.8
COc1cc2nc(N3CCN(C)CC3)nc(NC3CC3)c2cc1OC | . | . | 4.1% | 0.3% | . | -0.5 | .
CCOC(=O)C1(C)NC(c2ccc(OC)cc2OC)C2C(=O)N(c3cccc(OC)c3)C(=O)C21 (configuration not stated) | -2.6 | 17.3% | 1.1% | 0.3% | . | -0.6 | 2.6
C=CCOC(=O)C1=C(C)Nc2nnnn2C1c1cccc(OC)c1OC (configuration not stated) | -11.8 | 8.2% | -5.2% | -1.7% | 22.1 | -0.4 | 2.0
COC(=O)c1c(NC(=O)c2ccc(N(C)S(=O)(=O)c3ccc(C)cc3)cc2)sc2c1CCCC2 | 21.9 | 10.5% | -1.7% | 6.1% | -1.7 | 0.0 | 2.3
COCc1cc(C)nc(Sc2nc3c(c(=O)n(C)c(=O)n3C)n2C)c1C#N | -14.2 | -12.9% | -2.2% | -1.2% | -11.6 | 1.7 | ?
O=C(CSc1nnc(COc2ccc(Br)cc2)o1)NC1CCCCC1 | -6.5 | 7.9% | . | 10.8% | 2.7 | 0.8 | .
C[C@@H](NC(=O)c1nc[nH]c1C(=O)NCC(=O)OC(C)(C)C)c1ccccc1 | -5.6 | 2.4% | 2.4% | 2.3% | -22.5 | -0.4 | 2.9
O=C(COC(=O)C1CC2C=CC1C2)Nc1cccc(S(=O)(=O)N2CCCCCC2)c1 (configuration not stated) | 8.6 | 10.6% | 3.8% | 5.6% | -6.2 | 2.0 | .
Cc1ccccc1NC(=O)CCC(=O)N/N=C/c1ccc(F)cc1 | -9.5 | 11.5% | 3.5% | 0.7% | 4.1 | 0.0 | 0.4
O=S(=O)(/N=C(/c1ccccc1)N1CCCCC1)c1ccccc1 | -10.8 | 16.3% | -1.0% | 2.9% | 12.2 | 0.0 | 1.4
CCN(CC)C1CCN(C(=O)c2ccc(OC3CCN(CCc4ccccc4)CC3)cc2)C1 (configuration not stated) | -14.2 | 7.8% | 0.5% | -0.6% | -5.3 | -0.1 | -0.1
Cc1cccc(NC(=S)N/N=C2\CC(C)(C)Oc3ccc(O)cc32)c1 | 0.9 | 12.9% | . | 1.7% | 6.2 | -0.7 | 2.4
COc1ccc(-c2nc(C(=O)NCCCN3CCOCC3)cc3c2[nH]c2ccccc23)cc1OC | . | -20.3% | 4.8% | 3.0% | ? | . | 2.2
CC1(C)CC23C(=O)CCC(O)C2(C)CCC13 (configuration not stated) | . | 19.8% | . | 1.4% | . | . | 0.0
Cc1cc(OCC(=O)NCc2cccnc2)c2c(C)c(C)c(=O)oc2c1 | -9.5 | 10.5% | 4.2% | 6.2% | 5.2 | -0.9 | .
COc1ccc(OC)c(NC(=S)NCc2cccnc2)c1 | 0.6 | -11.8% | -12.9% | -1.5% | 1.3 | 0.4 | 3.5
COc1ccc(CCNC(=O)Cn2c(=O)n(CCCC(=O)NCc3ccco3)c(=O)c3sccc32)cc1OC | -6.0 | 5.8% | -0.8% | 0.1% | -0.9 | 1.5 | -0.5
COc1ccc(OCc2cc(C(=O)N[C@H]3CCCCNC3=O)no2)c(Cl)c1 | -8.9 | 20.1% | 2.7% | -1.0% | 6.7 | -0.2 | .
CCOc1ccc(CCNC(=O)Cn2c(=O)c3cccn3c3ccc(F)cc32)cc1OCC | -10.0 | . | -10.7% | 0.7% | . | 0.9 | .
